FGF22 binding – FGF22 (human) thermal shift binding; recombinant FGF22 thermal shift, SYPRO orange fluorescence; percent of sucrose octasulfate shift, DMSO zero; calls only at 9.99 µM; 340,000 tested, 1.5% active;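 active = melting point raised past a set limit in the mean and every replicate; inconclusive = no clear call; three in four hits are not shown here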
Target sequence (Q9HCT0 whole entry, looked up): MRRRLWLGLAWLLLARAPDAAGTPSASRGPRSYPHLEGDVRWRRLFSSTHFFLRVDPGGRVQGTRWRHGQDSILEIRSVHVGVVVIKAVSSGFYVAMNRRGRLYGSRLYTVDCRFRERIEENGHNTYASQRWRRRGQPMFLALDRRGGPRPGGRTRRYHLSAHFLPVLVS
HNF4A DNA FP – change in binding of human HNF4 alpha to DNA; P41235; HNF4a-FITC DNA binding, fluorescence polarization, 1 h; activity change, % at 10 µM; 360,000 tested, 0.3% active; in the data active = activity change above about 30%, passing the limit was not always enough;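 also: controls were the assay level and a saturating level of protein; the project sought stronger binding though the title names inhibitors; some compounds called inactive have numbers as strong as hits; positive values seem to mean higher polarization but the record does not say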
MLL AF4-AF9 inh – inhibitors of human MLL-AF4/AF9 interaction. P42568. AlphaScreen, biotin-AF4 peptide binding to FLAG-AF9. inhibition, % at 10 µM. 350,000 tested, 0.47% active. AID 651704;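 active = every replicate reaching a set inhibition limit, whatever the replicate mean, cut at about 25% in these data; inconclusive = mean inhibition reaches that limit but some replicates miss it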;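 also: 0% = plate neutral control median and 100% = total signal loss; the record names both 10 and 1 µM as test concentration; the first replicate is given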
Target sequence (P42568 whole entry, looked up): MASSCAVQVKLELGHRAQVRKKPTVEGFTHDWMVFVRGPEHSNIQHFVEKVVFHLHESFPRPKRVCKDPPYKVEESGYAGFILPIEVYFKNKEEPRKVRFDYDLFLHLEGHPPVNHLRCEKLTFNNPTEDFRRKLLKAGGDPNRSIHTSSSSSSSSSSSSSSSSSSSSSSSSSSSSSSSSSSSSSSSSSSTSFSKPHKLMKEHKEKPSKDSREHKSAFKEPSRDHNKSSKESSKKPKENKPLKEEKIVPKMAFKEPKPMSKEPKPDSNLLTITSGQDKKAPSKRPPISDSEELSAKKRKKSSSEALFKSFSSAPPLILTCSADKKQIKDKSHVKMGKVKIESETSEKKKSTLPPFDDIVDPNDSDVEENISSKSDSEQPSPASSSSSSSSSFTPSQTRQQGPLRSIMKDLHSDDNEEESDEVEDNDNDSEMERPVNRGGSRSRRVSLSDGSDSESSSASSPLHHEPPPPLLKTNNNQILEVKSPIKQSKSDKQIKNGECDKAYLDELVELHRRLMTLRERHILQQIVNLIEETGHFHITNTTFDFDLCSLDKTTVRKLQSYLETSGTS
RanGTP-Impb inh – inhibitors of RanGTP-importin-beta interaction, primary screen, biochemical, FRET, CFP-Ran, YFP-importin-beta, homogeneous; cell-free CFP-Ran/YFP-importin-beta FRET ratio; inhibition, % (test concentration not listed); 300,000 tested, 1.1% active; AID 2216;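 active = most replicates above 15%; inconclusive = exactly half above 15%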;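 also: 0% = DMSO wells and 100% = Ran loaded with GDP instead of GTP; wells of about 40 µL received 100 nL stock; the first replicate is given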
UCH37 DUB inh – human UCH37 deubiquitinating enzyme inhibition; Q9Y5K5; purified proteasome/UCH37, Ub-AMC cleavage fluorescence; inhibition, % (no concentration beside the values); 330,000 tested, 0.33% active; AID 588478;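 active = mean of two replicates above 20%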;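 also: 0% = compound-free wells with enzyme and 100% = wells lacking proteasome; stock transfer was 100 nL into about 20 µL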
Target sequence (Q9Y5K5 whole entry, looked up): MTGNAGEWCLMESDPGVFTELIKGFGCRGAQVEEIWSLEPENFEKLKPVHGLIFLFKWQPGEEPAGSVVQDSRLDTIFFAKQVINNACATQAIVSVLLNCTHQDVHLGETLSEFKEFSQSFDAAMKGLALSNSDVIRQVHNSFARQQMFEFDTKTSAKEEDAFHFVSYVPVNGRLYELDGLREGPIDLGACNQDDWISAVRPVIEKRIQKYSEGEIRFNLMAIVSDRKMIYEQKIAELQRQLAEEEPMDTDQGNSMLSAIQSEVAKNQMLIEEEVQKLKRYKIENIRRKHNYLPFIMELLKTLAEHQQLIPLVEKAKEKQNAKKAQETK
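assay system = human UCH37 enzyme supplied as purified proteasome complex | amount = proteasome at 0.15 nM in the dispensed enzyme solution | schedule = 30 min compound-proteasome preincubation then 25 min substrate reaction, room temperature | measured by = fluorescence, ex 355 nm, em 460 nm | benchmarks = no-proteasome wells (full inhibition) and compound-free wells (no inhibition)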
E coli growth – blocks Escherichia coli growth; OD600, 23 h; hits give low values; OD600 absorbance (test concentration not listed); 330,000 tested, 0.21% active; AID 1053175;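 active = OD600 absorbance below the run mean of sample wells minus 3.6 SD, in any replicate, cut at about 0.56 in these data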;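 also: stock transfer was 300 nL into about 60 µL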
Vif TR-FRET – inhibitors of Vif binding to APOBEC3G peptide, primary screen, biochemical, TR-FRET, GST-Vif 1-94, biotin-A3G peptide, dose response retest (AID 1117319) | TR-FRET GST-Vif / biotin-A3G peptide binding; higher % means a stronger effect; test concentration not given here; strong numbers were not always called active | one-dose inhibition, %; IC50 in µM for titrated hits | 260,000 tested, 0.57% active;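 active = above the screen mean plus three standard deviations and confirmed in dose response; inconclusive = results disagree or hit not tested in dose response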;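 also: Vif residues 1-94 fused to GST binding biotinylated APOBEC3G peptide 110-148; 0% = full assay without inhibitor and 100% = GST in place of GST-Vif; retest series ran down from 100 µM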
Starred values were filed as active, the others as inactive; i = inactive; ? = inconclusive; / = no result given; + = active, no number; & = joins results of further samples.

Preview:
SMILES | FGF22 binding | HNF4A DNA FP | MLL AF4-AF9 inh | RanGTP-Impb inh | UCH37 DUB inh | E coli growth | Vif TR-FRET
Cc1ccc(-c2cccc(C3CC=CC4C3C(=O)N(Cc3ccccc3)C4c3ccc4ccccc4c3)c2)cc1 (centres undefined) | i | 5.0 | -7.0 | -1.5 | 3.4 | 0.72 | -11%
N#Cc1c(NC2CCCCC2)nc(-c2ccco2)c2c1CCCC2 | / | 1.6 | / | 2.6 | -433 | 0.78 | 18%
O=C(CC(C(=O)N1CCc2ccccc21)n1ccnc1)N1CCc2ccccc2C1 (centres undefined) | / | -4.1 | / | 2.1 | 5.8 | 0.69 | -2%

The listing, from the start:
SMILES | FGF22 binding | HNF4A DNA FP | MLL AF4-AF9 inh | RanGTP-Impb inh | UCH37 DUB inh | E coli growth | Vif TR-FRET
Cc1ccc(-c2cccc(C3CC=CC4C3C(=O)N(Cc3ccccc3)C4c3ccc4ccccc4c3)c2)cc1 (centres undefined) | i | 5.0 | -7.0 | -1.5 | 3.4 | 0.72 | -11%
N#Cc1c(NC2CCCCC2)nc(-c2ccco2)c2c1CCCC2 | / | 1.6 | / | 2.6 | -433 | 0.78 | 18%
O=C(CC(C(=O)N1CCc2ccccc21)n1ccnc1)N1CCc2ccccc2C1 (centres undefined) | / | -4.1 | / | 2.1 | 5.8 | 0.69 | -2%
CN1C(=O)S/C(=C\c2ccccc2OCc2ccc(C(=O)O)cc2)C1=O | i | 0.4 | 1.3 | -2.9 | 3.9 | / | ?
Cc1ccc(C2=NN=C(NC(=O)CSc3nncn3C)SC2)cc1 | i | -0.3 | -0.6 | -1.4 | 5.8 | 0.69 | /
Cc1cccc(NC(=O)/C(C#N)=C\c2cccnc2)c1 | / | 4.6 | / | 2.6 | -0.5 | 0.65 | 2%
NC(=O)CCN1CCN(CCOC2Cc3cc(Cl)ccc3Sc3ccccc32)CC1 (centres undefined) | / | -2.2 | / | -1.6 | 2.4 | 0.64 | 5%
Cc1ccc2nc3c(cc(C(=O)NCCc4ccccc4)c(=N)n3CC3CCCO3)c(=O)n2c1 (centres undefined) | i | 2.6 | -4.2 | 182* | i | 0.67 | -4%
CC(C)NCC(O)c1cc(O)cc(O)c1 (centres undefined) | i | -2.1 | -4.8 | 8.5 | 1.6 | 0.64 | 5%
Cc1ccccc1CS(=O)(=O)c1ncc(Cl)c(C(=O)Nc2ccc(F)cc2)n1 | i | -3.1 | 1.5 | 2.6 | 5.6 | 0.69 | /
CCC1=NN2C(=N)/C(=C/c3cc(C)n(-c4ccccc4)c3C)C(=O)N=C2S1 | i | 0.3 | -1.2 | 12 | -42 | 0.67 | -13%
COc1ccc(C=NNc2ccc([N+](=O)[O-])cc2S(=O)(=O)Nc2ccccc2C(=O)O)cc1OC | i | 12 | 4.0 | / | 13 | 0.69 | -6%
Cc1cccc(-c2ccc3[nH]c4c(c3c2)CCN2C[C@@H]([C@H](C)OC(=O)Nc3ccccc3C)[C@@H](N(C)C(=O)Nc3ccccc3C)C[C@@H]42)c1 | i | 13 | 2.7 | / | / | / | 3%
COc1ccc(S(=O)(=O)NCc2ccccn2)cc1NC(=O)c1ccc(C)cc1 | i | -2.2 | 0.2 | 0.8 | 3.3 | 0.65 | -5%
COc1ccc(C2/C=C\CN(C(=O)Oc3ccccc3)CC(=O)N2Cc2ccc(F)cc2)cc1 (centres undefined) | i | 0.1 | -1.8 | -1.7 | 3.9 | / | /
Cc1ccc(C(=O)c2cc([N+](=O)[O-])ccc2N2CCCCC2)cc1C | / | -3.0 | / | 1.0 | 6.3 | 0.77 | 30%
N#Cc1nc(-c2ccc(Cl)cc2)oc1NCc1cccc2c1OCO2 | / | -1.3 | / | 2.9 | -58 | 0.7 | -1%
Cc1ccc(NC(=O)/C=C/c2ccc3c(c2)OCO3)nc1 | i | 6.8 | 1.0 | 3.2 | -11 | 0.7 | -9%
Nc1nc(N)nc(-c2cc(Cl)ccc2Cl)n1 | i | -0.9 | -3.8 | -2.3 | 4.9 | 0.67 | /
CC(=O)N1CCC(=O)Nc2ccc([N+](=O)[O-])cc21 | i | 3.8 | -0.1 | 2.8 | 6.0 | 0.71 | 18%
CCNC(=S)N1CCC(Cc2ccccc2)CC1 | i | 0.7 | 1.5 | 4.8 | 4.7 | 0.64 | /
O=C(CCNS(=O)(=O)c1cccc2nonc12)Nc1ccc(Cl)cc1 | i | 0.0 | 2.4 | -1.7 | 0.2 | 0.62 | -1%
Cc1ccc(NC(=O)CN2CCN(S(=O)(=O)c3ccc4c(c3)OCCO4)CC2)c(C)c1 | / | -0.3 | -0.8 | / | / | / | -1%
CC1CCN(c2nc3nonc3nc2N2CCC(C)CC2)CC1 | / | 7.0 | / | 0.6 | 4.0 | 0.68 | 0%
COc1ccc(CN2CCN(C(=O)c3cccc4ccccc34)CC2)cc1OC | i | 0.4 | -21 | 6.9 | 1.4 | 0.63 | /
Cc1ccc([C@@H]2CC=C(C(=O)O)[C@H](c3ccccc3)N2S(=O)(=O)c2ccc(C)cc2)cc1 | i | 1.3 | / | / | 4.3 | / | /
COc1ccc(NC(=O)c2c(NC(=O)CCC(=O)O)sc(-c3ccccc3)c2C)cc1 | i | -1.9 | -8.6 | ? | 0.9 | 0.72 | -19%
CCOc1ccccc1N1CC(C(=O)Nc2cc(S(=O)(=O)N3CCOCC3)ccc2OC(C)C)CC1=O (centres undefined) | i | 2.5 | -2.0 | / | -0.1 | 0.71 | /
Cc1cc(NCCN2CCOCC2)n2nc(C)c(-c3ccc(Cl)cc3)c2n1 | / | 3.8 | / | -0.6 | -26 | 0.79 | -6%
O=C(O)C1C2CCCCC2=C2CCCCC2C1C(=O)O (centres undefined) | / | 0.1 | / | 0.8 | -0.5 | 0.68 | 5%
Cc1nn(C(C)C(=O)NCCCc2ccccc2)c(=O)c2cc3occc3n12 (centres undefined) | / | 0.2 | / | -14 | 6.2 | 0.74 | 0%
O=C(Nc1ccc(C(=O)NCCCN2CCN(c3ccccc3)CC2)cc1)C1=CSCCO1 | i | 0.4 | 22 | 0.4 | 0.9 | 0.65 | /
Cn1c(CNc2ccc(F)cc2)nc2ccccc21 | i | -5.0 | -0.2 | 0.6 | 1.1 | 0.67 | /
COC(=O)c1ccccc1NC(=O)CSc1nnc(-c2ccncc2)o1 | / | 2.0 | / | -1.4 | 7.2 | 0.67 | -1%
C=CCS(=O)(=O)N1CCCC(Cc2ccccc2C)(C(=O)OCC)C1 (centres undefined) | i | -3.4 | -0.2 | 2.5 | 4.6 | 0.69 | 13%
COc1cccc(CC(=O)Nc2nccs2)c1 | / | -0.6 | / | / | 0.4 | 0.69 | 13%
CC(C)C[C@@H](COCc1ccc(Cl)cc1)N1CCN(C(=O)c2ccc(Cl)cc2Cl)CCC1=O | i | 0.3 | 1.5 | / | / | / | /
Cc1ccc(C(=O)N/C(=C\c2cn(S(=O)(=O)N(C)C)c3ccccc23)C(=O)NCCCn2ccnc2)cc1 | i | -0.9 | 11 | 1.3 | 6.3 | 0.69 | -1%
Cc1ccccc1S(=O)(=O)Cc1ccc(C(=O)NC2CCCCC2)o1 | i | 4.1 | -1.7 | -0.9 | 0.0 | 0.69 | -16%
COc1ccc(NC(=O)COC(=O)c2ccc(OCc3c(C)noc3C)cc2)cc1OC | / | 3.7 | / | 9.9 | 0.0 | 0.69 | -3%
COc1ccccc1N(CC(=O)N1CCCCC1)S(=O)(=O)c1ccccc1 | / | 5.2 | / | 1.1 | -0.9 | 0.67 | -3%
COCCOC(=O)c1[nH]c2c(c1C)C(=O)C(C(=O)OC)C(C)C2 (centres undefined) | i | -0.2 | 1.1 | -4.8 | 3.0 | 0.68 | 1%
C[C@@H]1NC(=O)[C@H](CC(N)=O)NC(=O)c2cc([N+](=O)[O-])cc(I)c2OCC[C@@H](C(=O)NC(CC(=O)O)C(N)=O)NC1=O (some centres undefined) | i | / | -2.7 | / | 1.1 | / | 11%
Cc1c(NC(=O)C(C)NCC2CCCO2)c(=O)n(-c2ccccc2)n1C (centres undefined) | / | -0.8 | / | 1.9 | 0.7 | 0.74 | -2%
O=C(CS(=O)(=O)Cc1ccccc1)c1ccccc1 | i | -1.0 | -0.1 | / | / | / | 0%
O=[N+]([O-])c1ccc2nc(-c3cccnc3)[nH]c2c1 | i | 2.2 | 2.3 | 5.8 | 7.3 | 0.59 | 0%
O=C(NCc1ccc2c(c1)OCO2)C1CCN(S(=O)(=O)c2ccc(Br)s2)CC1 | / | 3.4 | / | -1.1 | 1.7 | 0.7 | 1%
C[C@H](CO)N1C[C@H](C)[C@@H](CN(C)S(=O)(=O)c2ccc(F)cc2)Oc2ccc(NS(=O)(=O)c3cccs3)cc2C1=O | i | -5.1 | 1.1&6.5 | / | 2.2 | 0.69 | /
CC(C(=O)NCC1(c2ccccc2)CCCC1)N1CCCC1 (centres undefined) | i | 1.0 | 5.4 | 4.3 | 2.1 | 0.63 | 3%
CC(C)c1nnc(NC(=O)c2cc3ccccc3o2)s1 | i | 5.0 | -6.1 | -0.1 | 0.0 | 0.7 | /
Cc1cc(C)cc(OCC(=O)Nc2ccc3c(c2)OCO3)c1 | i | -0.2 | -3.1 | / | -0.8 | 0.7 | 6%
COc1cc(C(=O)NCCC(=O)NC2CCCCCCC2)cc(OC)c1OC | / | 3.1 | / | -0.9 | 3.2 | 0.73 | 7%
CC1CCN(c2ccccc2NC(=O)c2ccc(N3CCOCC3)c([N+](=O)[O-])c2)CC1 | i | -0.3 | -3.6 | 1.4 | 2.4 | 0.72 | -1%
O=C(c1ccc(Cl)cc1)c1c[nH]c(C(=O)NNc2cccc(Cl)n2)c1 | i | 4.7 | -1.4 | 1.9 | 2.7 | 0.7 | 32%
CNC(=S)NNC(=O)COc1cccc(C)c1C | / | 0.1 | / | -1.4 | -0.3 | 0.75 | 4%
O=C(CCc1ccc(Oc2cc([N+](=O)[O-])cc([N+](=O)[O-])c2)cc1)Nc1cccc(Cl)c1 | / | -3.8 | / | -2.3 | 5.0 | 0.72 | ?
CN(CC(=O)Nc1ccc(Cl)c(C(F)(F)F)c1)C(=O)c1cc(=O)[nH]c2ccccc12 | i | 2.7 | 3.0 | -5.6 | -4.7 | 0.71 | 2%
CC1(C(=O)NS(=O)(=O)c2cccc(Cl)c2)CCN1C(=O)Cc1ccc(-c2ccccc2)cc1 (centres undefined) | + | 1.6 | -4.4 | / | / | / | /
Cc1ccccc1NC(=S)C1=C(O)c2sccc2N(C)S1(=O)=O | / | 0.6 | / | 89* | 23* | 0.74 | 8%
O=C1c2oc3ccccc3c(=O)c2C(c2ccc(O)cc2)N1c1nccs1 (centres undefined) | i | -3.2 | 6.1 | 2.6 | -2.0 | 0.69 | 1%
(continued)
SMILES | FGF22 binding | HNF4A DNA FP | MLL AF4-AF9 inh | RanGTP-Impb inh | UCH37 DUB inh | E coli growth | Vif TR-FRET
Cc1cc(C)c(S(=O)(=O)N(C)CC(N)=O)c(C)c1 | / | 1.7 | / | 17* | 0.3 | 0.68 | 0%
CN(c1ccc(C(=O)NCCCn2ccnc2)cc1)S(C)(=O)=O | i | -0.4 | -5.2 | 0.5 | 2.0 | 0.64 | 1%
CCOC(=O)NC1(C(F)(F)F)NC(=O)N(Cc2ccco2)C1=O (centres undefined) | i | 6.0 | 2.1 | ? | 1.7 | 0.69 | 14%
CCCS(=O)(=O)NC(=O)C1(C)CCN(C(=O)c2cc(F)ccc2C)C1 (centres undefined) | i | 3.9 | 0.0 | / | / | / | /
NC(=O)c1sc2nc(-c3cccs3)ccc2c1N | i | 16 | 0.5 | ? | -56 | 0.64 | -15%
COCCNC(=O)CC(=O)N/N=C/c1cccc(C(=O)OC)c1 | i | -4.2 | -3.0 | -2.2 | / | / | -1%

An excerpt; count on the stated rates, not on these rows.
